# Arbovirus anti: antivirals against arbovirus infection; inhibition, % at 10 µM; arbovirus infection cell-based antiviral screen; AID 1251; 0.37% of 200,000 active;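 active = inhibition from about 30%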;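 note: bluetongue infection of BSR cells; cell survival read as ATP light after 72 h; 0% = infected wells without compound and 100% = uninfected wells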
# YopH PTP inh: YopH (Yersinia) phosphatase inhibition; inhibition, %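 (about 10 µM by stock and volumes)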; 0.16% of 140,000 active; fluorescence Ex485/Em525;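 active = inhibition of 50% or more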;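 note: controls were vehicle for no effect and minimum signal wells for full effect; inactives centre near -20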
# RecA splice inh: blocks M. tuberculosis RecA intein splicing | P9WHJ3 | cell-free RecA intein splicing, fluorescence | inhibition, %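 (about 9 µM by stock and volumes)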 | 0.75% of 290,000 active | AID 2221; in the data active = inhibition above about 30%; inconclusive = no clear call, values can overlap the other calls;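 note: 0% = vehicle wells and 100% = reference inhibitor control wells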
# Target sequence (P9WHJ3 whole entry, looked up, canonical isoform): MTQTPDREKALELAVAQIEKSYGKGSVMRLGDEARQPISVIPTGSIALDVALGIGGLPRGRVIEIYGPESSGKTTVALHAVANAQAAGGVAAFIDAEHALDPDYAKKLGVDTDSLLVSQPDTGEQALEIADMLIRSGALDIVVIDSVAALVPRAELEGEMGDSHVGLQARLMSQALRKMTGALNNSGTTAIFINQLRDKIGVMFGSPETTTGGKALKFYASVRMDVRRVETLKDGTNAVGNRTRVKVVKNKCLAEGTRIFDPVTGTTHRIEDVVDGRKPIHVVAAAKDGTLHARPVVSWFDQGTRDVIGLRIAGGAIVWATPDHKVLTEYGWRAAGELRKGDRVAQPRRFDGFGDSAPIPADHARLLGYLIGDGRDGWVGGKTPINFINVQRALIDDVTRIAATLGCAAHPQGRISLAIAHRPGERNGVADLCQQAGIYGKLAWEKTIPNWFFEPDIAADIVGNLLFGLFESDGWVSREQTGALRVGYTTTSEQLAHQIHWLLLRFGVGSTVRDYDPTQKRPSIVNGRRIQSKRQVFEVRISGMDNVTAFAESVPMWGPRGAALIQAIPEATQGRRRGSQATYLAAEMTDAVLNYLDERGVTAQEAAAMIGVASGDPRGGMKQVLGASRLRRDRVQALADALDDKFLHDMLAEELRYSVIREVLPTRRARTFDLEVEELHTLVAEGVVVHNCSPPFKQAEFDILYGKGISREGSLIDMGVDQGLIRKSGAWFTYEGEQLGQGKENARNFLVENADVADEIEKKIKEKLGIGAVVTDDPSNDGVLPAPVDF
# Mtb betalactam: beta-lactam sensitization of Mtb H37Rv. inhibition, % at 25 µM. 0.27% of 330,000 active. M. tuberculosis H37Rv growth with meropenem, percent inhibition; hits of this screen are not shown here;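 active = about 74% or more and at least 40 points above the plate without the antibiotic, then above 30% in a dose series; inconclusive = first-round hits that could not be retested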;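 note: growth measured after seven days incubation then overnight dye step; 0% = bacteria only wells and 100% = bacteria with antibiotic; twin plates without the antibiotic show which effects depend on it; some results filed as inactive read as strong as hits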
# Mtb growth: M. tuberculosis H37Rv growth inhibitors, H37Rv strain (AID 1626); M. tuberculosis H37Rv growth inhibition; higher % means a stronger effect; inhibition, % at 10 µM, or IC50 in µM where a hit was titrated; 0.95% of 220,000 active;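 active = confirmed in a dose series; inconclusive = inhibition above 80% but not taken into the dose series; inactive = below 80% or under 30% at every dose of the series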;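 note: bacteria incubated seven days before Alamar blue readout; 0% = bacteria only wells and 100% = bacteria with antibiotic wells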
# Arbovirus anti repeat: recorded beside Arbovirus anti, whose call it bears; inhibition, %; measured here: 10K subset replicate screen; many hits read low in the repeat;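 first of two repeat runs on a subset; 0% = infected and 100% = uninfected wells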
# The depositor's hits bear a star; ? = inconclusive; / = no result given. Only part of the results is shown, so the mix of outcomes need not match the whole.
SMILES,Arbovirus anti,YopH PTP inh,RecA splice inh,Mtb betalactam,Mtb growth,others
O=C(c1ccc(Cl)c(Cl)c1)c1cc(-c2ccccn2)c(N2CCOCC2)s1,-29,-29,-46,70,10%,
COc1ccccc1-c1nnc(SCC(=O)NC2CCS(=O)(=O)C2)n1CCc1ccccc1 (stereo not given),0,-14,0.9,2,-1%,
Cc1ccccc1CSc1nnc(-c2cnccn2)n1C,/,/,-2.1,-2,-7%,
CCn1nnnc1NCc1ccc(N2CCCC2)cc1,1,-19,-2.1,-12,-1%,
COc1cccc(NC(=S)NNC(=O)Cn2nc(C(F)F)cc2C(F)F)c1,4,-23,-2.7,4,0%,
C=CCc1cccc(Cl)c1OCCON1C(=O)CCC1=O,0,-16,-0.5,-1,1%,
CCOC(=O)c1ccccc1NC(=O)CCNC(=O)Cn1cnc2ccccc2c1=O,3,-31,-3.1,-7,-7%,
O=C(CS(=O)Cc1ccccc1Cl)Nc1ccccc1Cl (stereo not given),0,/,11,-3,7%,
CCC(C)NC(=O)C(Sc1ccccc1)c1ccccc1 (stereo not given),-8,/,0.6,-4,-1%,
O=C(O)c1ccc(Cl)c(S(=O)(=O)NCc2cccnc2)c1,5,/,-0.7,-4,-3%,
N#Cc1nc(-c2ccco2)oc1NCc1ccccc1Cl,/,/,0.4,-8,8%,
CC(C)(C)C1=C[C@@H](CO)C[C@@H](CO)C1,10,-55,-4.5,20,3%,
O=C(CC1C(=O)CCCC1=O)c1ccccc1,-3,/,23,-4,-6%,
Cc1nn(-c2ccccc2)c(Cl)c1/C=N/NC(=O)c1ccc(NS(=O)(=O)c2cccs2)cc1,1,/,-0.3,-7,32%,
O=C(CN1CCN(c2ccc([N+](=O)[O-])cc2Cl)CC1)N1CCOCC1,/,/,1.1,1,-2%,
O=C1CSC(c2ccc(Cl)cc2Cl)N1c1ccccn1 (stereo not given),-9,-31,7.2,2,-1%,
CN1CCN(c2nc3c(c(=O)n(C)c(=O)n3C)n2Cc2cccc3ccccc23)CC1,-4,-20,-7.3,-11,-7%,
COc1ccc(/C=N/NC(=O)c2ccncc2)cc1CN1CCOCC1,/,/,-0.3,99,?,
COC(=O)[C@@H](Cc1c[nH]c2ccccc12)NC(=O)c1ccc2c(c1)OCO2,/,/,2.1,-7,/,
Cc1cccc(NC(=O)CN2C(=S)NC(C)(C)CC2C)c1 (stereo not given),-1,-19,-0.8,3,-1%,

# Entries shown so far that have an aryl methoxy group, in the order listed:
SMILES,Arbovirus anti,YopH PTP inh,RecA splice inh,Mtb betalactam,Mtb growth,others
COc1ccccc1-c1nnc(SCC(=O)NC2CCS(=O)(=O)C2)n1CCc1ccccc1 (stereo not given),0,-14,0.9,2,-1%,
COc1cccc(NC(=S)NNC(=O)Cn2nc(C(F)F)cc2C(F)F)c1,4,-23,-2.7,4,0%,
COc1ccc(/C=N/NC(=O)c2ccncc2)cc1CN1CCOCC1,/,/,-0.3,99,?,

# Additional records.
SMILES,Arbovirus anti,YopH PTP inh,RecA splice inh,Mtb betalactam,Mtb growth,others
O=C1c2cccc3cccc(c23)C(=O)N1CCCn1ccnc1,/,/,-0.3,11,/,
CCOC(=O)C1CCCN(c2ncnc3c2oc2ccccc23)C1 (stereo not given),-5,-40,-0.3,4,-2%,
Cc1ccc(CSc2nc3nc(C)cc(C)n3n2)cc1,/,/,-0.6,-2,/,
c1nc(N2CCCCCC2)c2[nH]cnc2n1,2,-25,-46,-7,7%,
CC1CCN(C(=O)Cn2c(=O)n(CCc3ccccc3)c(=O)c3ccccc32)CC1,1,-11,2.1,-15,-1%,
COC(=O)CCCC1=CC2=CC(=O)C(C)(O)C(=O)C2=CO1 (stereo not given),/,/,2.5,-5,0%,
Cc1csc(NC(=O)c2ccc(C(=O)Nc3nc(C)cs3)cc2)n1,/,/,-0.8,-2,-5%,
CC(c1ccccc1)N1CCn2c(nc3cc(NS(C)(=O)=O)ccc32)C1 (stereo not given),1,/,1.6,-7,-4%,
COc1ccc(N2CCN(C(=O)c3cccc(Cn4cc(Cl)cn4)c3)CC2)cc1,4,-25,-1.7,10,1%,
COc1ccccc1CNS(=O)(=O)c1ccc(NC(C)=O)cc1,7,-1,-1.0,-10,5%,
COC(=O)c1nnn(CC(=O)Nc2cc(Cl)ccc2C)c1C(=O)OC,0,-17,0.3,-9,-11%,
Cn1cc(CNC(=O)c2ccc3nc(Cc4ccccc4F)oc3c2)cn1,/,/,-1.2,-5,/,
Cc1ccc(C)c(OCc2cc(C(=O)N3CCN(c4ccccc4C)CC3C)no2)c1 (stereo not given),/,/,0.7,3,/,
CCCCOCCCNC(=O)c1c(-c2ccccc2)noc1C,-3,-1,0.8,-11,3%,
C(=N\Nc1nc(N2CCCC2)nc(N2CCCC2)n1)/c1cccnc1,-6,/,-2.8,2,-3%,
CN(C)CCCn1c2c(c(SCC(=O)Nc3cccc4ccccc34)nc1=O)CCC2,/,/,0.5,-12,/,
O=C(c1ccco1)N1CCN(S(=O)(=O)c2ccc3c(c2)CCN3C(=O)C2CCC2)CC1,3,14,-1.1,-6,1%,
Cc1cc(C)c(S(=O)(=O)N2CCN(C)CC2)c(C)c1,3,-47,-3.4,-1,-8%,Arbovirus anti repeat=1
CCOC(=O)c1cnc2c(ccc3ccccc32)c1NCCO,-16,-26,1.8,0,8%,
COCCN1C(=O)c2ccccc2C(C(=O)NCCCN2CCCC2)C1c1c[nH]c2ccccc12 (stereo not given),-2,-16,0.3,1,8%,
Cc1ccc(Nc2nc(-c3sc(NC(=O)c4ccccc4)nc3C)cs2)cc1,6,-21,1.0,-4,-6%,
C/C(=C\C(=O)c1ccc(F)cc1)NCc1ccc2c(c1)OCO2,0,-27,2.1,0,1%,
COc1ccc(C(=O)Oc2cc(N)n(S(=O)(=O)c3ccc(C)cc3)n2)cc1,/,/,2.4,4,/,
CC(=O)Nc1ccc(S(=O)(=O)N/N=C/c2cccnc2)cc1,/,/,-27,1,/,
Cc1ccc(S(=O)(=O)N(C)CC(=O)N(CC(C)C)C2CCS(=O)(=O)C2)cc1 (stereo not given),/,/,0.5,-8,/,
CC(C)(C)n1nc2c(c1NC(=O)c1ccc(C(F)(F)F)cc1)CS(=O)(=O)C2,/,/,-0.1,5,/,
CCc1cc(C(=O)OC)c(NC(=O)CSc2nccn2C)s1,/,/,2.6,0,/,
CCC(=O)Nc1ccc(C(=O)OCc2ccccc2Cl)cc1,0,5,1.9,10,3%,
COc1cc(C2c3sc(=O)[nH]c3SC3C(=O)N(c4ccc(C)cc4)C(=O)C32)ccc1O (stereo not given),/,/,-1.0,-4,-1%,
Cc1cc(=O)[nH]c(N=N/C(=N/Nc2ccccc2C)c2ccccc2)n1,-42,0,-3.2,49,?,
O=C(NC(Cc1ccccc1)C(=O)O)/C(=C\c1ccco1)NC(=O)c1ccc(Br)cc1 (stereo not given),1,-42,0.4,-2,/,
CCCCN(C(=O)c1ccc(NC(=O)C(C)C)cc1)c1ccccc1,-11,/,-2.3,-5,9%,
Cc1ccc(OCc2cc(C(=O)N3CCC(c4ccccc4Cl)C3)no2)cc1C (stereo not given),/,/,1.9,3,/,
CC(=O)Nc1ccc(CC(=O)NCCC(c2ccccc2)c2ccccc2)cc1,/,/,4.1,-3,/,
CCOC(=O)C1CCN(C(=O)c2ccccc2N(C)S(=O)(=O)c2ccccc2)CC1,11,-19,-1.8,-10,-1%,
CC(C)(C)CC(C)(C)NC(=S)Nc1ccc2nc(-c3ccccn3)c(-c3ccccn3)nc2c1,-22,14,-87,11,8%,
O=C(CSc1ccc(-c2ccc(F)cc2)nn1)NC1CCCCC1,/,/,-1.1,2,/,
CC(=O)Nc1cccc(NS(=O)(=O)c2cn(C)c(=O)n(C)c2=O)c1,/,/,-5.2,8,/,
COc1ccc(NC(=S)Nc2cc(C)ccn2)c(OC)c1,4,-30,-0.5,1,7%,
COc1cccc(C(=O)NC2CC(C)(C)Cc3c2cnn3-c2cccc(F)c2)c1OC (stereo not given),/,/,8.4,?,/,
COc1ccc(N(C(=O)c2snc(C(N)=O)c2N)C(C(=O)NCC2CCCO2)c2ccc(C)o2)cc1OC (stereo not given),/,/,7.3,-6,/,
COC(=O)c1c(N2C(=O)[C@H]3[C@@H](C2=O)[C@]2(C(=O)Nc4ccc(C)cc42)N2CCC[C@@H]32)sc(C)c1C,1,/,-2.3,-3,5%,
C=CCn1c(SCc2ccc([N+](=O)[O-])cc2)nnc1C(C)NC(=O)c1ccccc1 (stereo not given),7,-53,-1.7,16,-4%,
COc1cccc(OC)c1-c1nn2c(-c3cc(-c4ccccc4)n[nH]3)nnc2s1,-12,2,0.8,1,50%,
Cc1ccc(C(=O)Nc2cc(Cl)ccc2-n2cncn2)s1,/,/,-2.6,2,/,
COc1cc(C2C(C(N)=O)=C(C)Nc3nc(CCCO)nn32)cc(OC)c1OC (stereo not given),2,-40,-0.1,?,9%,Arbovirus anti repeat=3
O=C(NNc1ccc([N+](=O)[O-])cc1[N+](=O)[O-])C1C2CCCCC21 (stereo not given),5,-20,-1.0,7,-1%,
CCOc1ccc(C(C)NC(=O)C2CCC2)cc1 (stereo not given),3,-28,-2.1,5,2%,
Cc1ccc(Nc2nc(-c3ccc(C)cc3)c(CC(=O)O)s2)cc1,7,/,-1.9,-2,12%,
O=C(Nc1cccc(S(=O)(=O)N2CCCCC2)c1)c1ccc2ncsc2c1,/,/,3.0,-2,1%,
CC(=O)/C=C/c1ccccc1Oc1c(F)c(F)nc(F)c1F,/,/,2.6,51,/,
N#CCc1ccc(NC(=O)c2ccccc2C(=O)Nc2ccc(CC#N)cc2)cc1,/,/,1.4,54,/,
O=C(c1ccc(Cl)cc1)N1CCCOC1,7,5,1.9,-6,-4%,
Cn1c(C(=O)N/N=C/c2ccccc2)cc2ccccc21,/,/,-0.7,0,/,
C=CCn1c(SC2CCOC2=O)nc2scc(C3CC3)c2c1=O (stereo not given),1,-41,4.4,-5,-2%,
Cc1ccc2c(C)c(C(=O)N(C)CCC3CCCCO3)oc2c1C (stereo not given),/,/,0.3,2,/,
CCOc1ccc(OCC)c(S(=O)(=O)n2cc(C)nc2CC)c1,-1,/,0.2,1,-1%,
O=S(=O)(c1ccc2c(c1)OCCO2)N1CCN(c2cccc(Cl)c2)CC1,8,-21,4.1,-6,1%,
COc1ccc(C(C)=O)cc1COC(=O)c1cc(=O)c2ccccc2o1,/,/,-1.0,6,/,
COc1ccc(C2C(C(=O)c3ccco3)=C(O)C(=O)N2CCCn2ccnc2)c(OC)c1 (stereo not given),/,/,1.4,-10,/,

# The closing 5 entries of the part before are carried over, then new ones follow:
SMILES,Arbovirus anti,YopH PTP inh,RecA splice inh,Mtb betalactam,Mtb growth,others
Cc1ccc2c(C)c(C(=O)N(C)CCC3CCCCO3)oc2c1C (stereo not given),/,/,0.3,2,/,
CCOc1ccc(OCC)c(S(=O)(=O)n2cc(C)nc2CC)c1,-1,/,0.2,1,-1%,
O=S(=O)(c1ccc2c(c1)OCCO2)N1CCN(c2cccc(Cl)c2)CC1,8,-21,4.1,-6,1%,
COc1ccc(C(C)=O)cc1COC(=O)c1cc(=O)c2ccccc2o1,/,/,-1.0,6,/,
COc1ccc(C2C(C(=O)c3ccco3)=C(O)C(=O)N2CCCn2ccnc2)c(OC)c1 (stereo not given),/,/,1.4,-10,/,
O=C(O)C1CC1c1ccc(Br)cc1 (stereo not given),3,-42,-2.0,0,3%,
Cc1cc(C)c(S(=O)(=O)N2CCCCC2)c(C)c1-n1ncnn1,12,-16,-0.6,2,5%,
CN(Cc1c(C(=O)N/N=C/c2cccc(F)c2)nnn1-c1nonc1N)c1ccccc1,/,/,6.7,1,/,
O=C(/C=C/c1cccc(Br)c1)N1CCN(c2ccccn2)CC1,-4,/,2.6,0,-6%,
Cn1c(Nc2ccccc2)cc(=O)n(C)c1=O,/,/,0.9,5,/,
O=C(COC(=O)CCSc1ccc(Cl)cc1)NCc1ccccc1,-2,-8,-1.9,?,0%,
COC(=O)C1=C(C)N(C)C(=O)NC1c1cccc2ccccc12 (stereo not given),/,/,1.3,-1,/,
Cc1nn(Cc2ccccc2)c(Cl)c1C(=O)OCC(=O)NC(=O)NC12CC3CC(CC(C3)C1)C2,-2,-15,4.5,?,18%,
COc1ccc(N(C(=O)C(C)C)S(=O)(=O)c2cccs2)cc1,-10,-14,1.2,8,0%,
O=C(CSc1nnc(Cc2ccccc2)o1)c1ccc2c(c1)OCO2,/,/,1.3,-6,/,
Cc1ccc(-n2c(=O)c3c4c(sc3n3c(=S)[nH]nc23)CCC4)cc1,/,/,0.5,-5,-2%,
Cc1ccnc(NC(=O)C(C)N2C(=O)c3ccccc3S2(=O)=O)c1 (stereo not given),/,/,0.8,-1,/,
COc1ccccc1NC(=O)Cn1c(=O)c(N(C)C)c(N)n(C)c1=O,-3,/,0.6,-3,-5%,

# Bioassay records deposited in PubChem BioAssay by several laboratories.
